Assay outcomes from PubChem.
GLA inh pH 4.5 – alpha-galactosidase A (human) inhibition, pH 4.5. purified enzyme, 4-MU-alpha-Gal fluorescence, pH 4.5. activity change, negative = inhibition, % at 105 µM. 230,000 tested, under 10 active; inconclusive = small, poorly fitted or top-dose-only inhibition, or a rising curve; inactive = flat fitted curve, though single readings scatter; no compound was filed as active;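 further: 0% = full activity with enzyme and -100% = basal without enzyme; dose as in the result columns while the protocol names 77 µM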
Target sequence (P06280 whole entry, looked up): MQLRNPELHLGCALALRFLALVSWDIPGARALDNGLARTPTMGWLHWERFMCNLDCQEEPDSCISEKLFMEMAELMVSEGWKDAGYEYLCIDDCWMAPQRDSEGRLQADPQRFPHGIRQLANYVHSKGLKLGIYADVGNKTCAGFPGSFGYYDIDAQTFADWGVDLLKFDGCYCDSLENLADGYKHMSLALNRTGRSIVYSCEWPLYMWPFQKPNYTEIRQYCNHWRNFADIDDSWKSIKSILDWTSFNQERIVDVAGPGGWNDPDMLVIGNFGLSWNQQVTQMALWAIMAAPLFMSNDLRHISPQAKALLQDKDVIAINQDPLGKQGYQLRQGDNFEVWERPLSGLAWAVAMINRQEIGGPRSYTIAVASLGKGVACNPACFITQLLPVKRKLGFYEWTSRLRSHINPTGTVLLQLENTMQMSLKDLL
miR-21 reporter – raises the signal of a miR-21 reporter. HeLa miR-21 FLuc reporter, luciferase, 48 h. Potency, µM (series often up to 38.3 µM), without a hit: top-dose reporter change, positive = more light. 340,000 tested, under 10 active. AID 2288; active = well fitted rising curve with a large enough effect; inconclusive = small, poorly fitted or top-dose-only effect; inactive = no such curve, though single readings can be large or run the other way;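 further: % of control where 0% means no effect; miR-21 action dims this reporter so a rising signal means less miR-21 action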
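Compounds were titrated across several concentrations (up to approximately 40 uM) and incubated 48 hours with HeLa miR-21-FLuc reporter cells (miR-21 target sequence downstream of FLuc, endogenous miR-21). Readout was firefly luciferase luminescence after lytic detection reagent.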
Rango-impB inh – prevents formation of the Rango-importin beta complex; Q14974; 0.031% of 340,000 active; Rango CFP/YFP FRET sensor + importin beta, 45 min; AID 540263; Potency, µM (series often up to 92.2 µM), without a hit: at the highest dose inhibition of complex formation; active = rising FRET ratio curve, often small or poorly fitted; inconclusive = mostly compound fluorescence or quenching in the first reads; inactive = flat curves in all reads;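 further: potency means the concentration at half of the fitted maximal effect; 0% = DMSO wells and 100% = buffer wells lacking importin beta; nearly all actives have a fitted effect of over 15% in size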
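FRET biosensor Rango (snurportin 1 IBB between N-terminal EYFP and C-terminal Cerulean), 50 nM in PBS/1 mM DTT/0.02% Tween-20/0.1% BSA, preincubated 5 min RT with compound; 0.125 microM importin beta added, 45 min RT, CFP/YFP FRET ratio read.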
Rango dissoc inh – prevents RanGTP from dissociating the Rango-importin beta complex | Potency, µM (series often up to 46.1 µM), for inactives: at the top dose activity change, negative = inhibition | 0.071% of 340,000 active | AID 540253 | O95149+P62826 | Biochemical FRET Rango-importin beta, RanGTP-induced dissociation; active means falling FRET ratio curve, often poorly fitted, with flat reads before Ran was added; inconclusive means other falling curves, or compound fluorescence or quenching; inactive means flat or rising ratio curve;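 further: potency means the concentration at half of the fitted maximal effect; % of control where 0% means no effect; nearly all actives have a fitted effect of over 45% in size; -100% = wells without RanGTP and RCC1; the record marks most hits as doubtful in a second field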
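Rango (0.1 uM)–importin beta (0.25 uM) complex; RanGTP-RCC1 trigger; 45 min RT; CFP/YFP FRET read.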
An asterisk follows results filed as active. Some of the compounds tested; rates above refer to the full screens.

What do the screens show for `O=C1NC2(CCCc3ccccc32)C(=O)N1Cc1nnc(-c2ccccc2Br)o1` (stereo unspecified)?
GLA inh pH 4.5: 1; miR-21 reporter: -5%; Rango-impB inh: -1.7%; Rango dissoc inh: -9%

How did CN(C)c1cc[n+](CC(=O)Nc2ccccc2C(F)(F)F)cc1 do in these assays?
miR-21 reporter: 1%; Rango-impB inh: -5.6%; Rango dissoc inh: 1%

What do the screens show for `COc1ccccc1NC(=O)CN1CCN(c2ccccc2)CC1`?
GLA inh pH 4.5: -1; miR-21 reporter: -11%; Rango-impB inh: -0.2%; Rango dissoc inh: -6%

What do the screens show for `O=C(c1ccc(CS(=O)(=O)c2ccc(Br)cc2)o1)N1CCOCC1`?
GLA inh pH 4.5: -5; miR-21 reporter: 2%; Rango-impB inh: -5.5%; Rango dissoc inh: 21%

How did Cc1cc(C)n(-c2ccc(C(=O)OCC(=O)Nc3cc(Cl)ccc3[N+](=O)[O-])cc2)n1 do in these assays?
GLA inh pH 4.5: -2; miR-21 reporter: 0%; Rango-impB inh: 0.3%; Rango dissoc inh: -6%

How did Cc1csc(NC(=O)CSc2nc3sc(C)c(C)c3c(=O)[nH]2)n1 do in these assays?
GLA inh pH 4.5: 1; miR-21 reporter: -15%; Rango-impB inh: -0.5%; Rango dissoc inh: -5%

Results for CCn1nc(CC(C)C)cc1C(=O)N1CCCC(Nc2ccc(F)cc2)C1 (stereo unspecified) ?
miR-21 reporter: 0%; Rango-impB inh: -0.2%; Rango dissoc inh: -1%

How did Cc1cccc(NC(=O)NCCCCc2ccccc2)c1 do in these assays?
miR-21 reporter: -21%; Rango-impB inh: 0.3%; Rango dissoc inh: 7%

What do the screens show for `COc1ccccc1CN1CCN(Cc2nc(-c3cccs3)no2)CC1`?
GLA inh pH 4.5: 7; miR-21 reporter: -36%; Rango-impB inh: 0.7%; Rango dissoc inh: -8%

Results for N=C(N)N1CCc2ccccc21 ?
GLA inh pH 4.5: -2; miR-21 reporter: 0%; Rango-impB inh: -2.9%; Rango dissoc inh: -7%

What do the screens show for `O=C(CN1C(=O)/C(=C/c2ccccc2F)Sc2ccccc21)NCc1cccnc1`?
GLA inh pH 4.5: -4; miR-21 reporter: 30%; Rango-impB inh: inconclusive; Rango dissoc inh: inconclusive

What do the screens show for `COc1ccc(CCNC(=O)C2CCCN2C(=O)Nc2ccccc2)cc1OC` (stereo unspecified)?
miR-21 reporter: 0%; Rango-impB inh: 5.2%; Rango dissoc inh: -8%

Results for Cn1cc(CNC(=O)c2cc(-c3ccccc3)nc3ccc(Br)cc23)cn1 ?
GLA inh pH 4.5: 7; miR-21 reporter: -11%; Rango-impB inh: -0.7%; Rango dissoc inh: 1%

Results for Cc1ccc(Nc2nc3ccccc3s2)cc1 ?
GLA inh pH 4.5: -4; miR-21 reporter: -45%; Rango-impB inh: 3.0%; Rango dissoc inh: 16%

What do the screens show for `O=C(NNc1c(Cl)cc(Cl)cc1Cl)c1n[nH]c(=O)c2ccccc12`?
GLA inh pH 4.5: 8; miR-21 reporter: -1%; Rango-impB inh: 0.4%; Rango dissoc inh: 16%

How did COc1cccc(NC(=O)c2ncn[nH]2)c1 do in these assays?
GLA inh pH 4.5: 0; miR-21 reporter: 3%; Rango-impB inh: 0.7%; Rango dissoc inh: 10%

How did O=C(NCCN1CCc2ccccc2C1)C1CCN(S(=O)(=O)N2CCC3(CC2)OCCO3)CC1 do in these assays?
GLA inh pH 4.5: 2; miR-21 reporter: -3%; Rango-impB inh: -2.5%; Rango dissoc inh: -22%

Results for Cn1cccc1/C=C1\SC(=Nc2ccc(O)cc2)NC1=O ?
GLA inh pH 4.5: -4; miR-21 reporter: -22%; Rango-impB inh: inconclusive; Rango dissoc inh: -16%

What do the screens show for `COc1ccccc1C(=O)NNC(=O)c1ccc(NC(=O)CC(C)C)cc1`?
GLA inh pH 4.5: 3; miR-21 reporter: -4%; Rango-impB inh: -1.3%; Rango dissoc inh: -7%

Results for CSc1nc(N(C)NC(=O)c2ccc(Cl)cc2)c2ccccc2n1 ?
GLA inh pH 4.5: -5; miR-21 reporter: 22%; Rango-impB inh: 4.6%; Rango dissoc inh: 3%

Results for O=C1NC(=O)c2cc(Oc3ccc([N+](=O)[O-])cc3)ccc21 ?
miR-21 reporter: 1%; Rango-impB inh: -1.8%; Rango dissoc inh: 25%

Results for NC(=O)c1ccc(NC(=O)CNC(=O)c2sc3ccccc3c2Cl)cc1 ?
Rango-impB inh: -3.1%; Rango dissoc inh: 5%

Results for COc1ccc(CCNC(=O)Cc2ccsc2)cc1 ?
miR-21 reporter: -12%; Rango-impB inh: 5.2%; Rango dissoc inh: 4%

Results for Cc1ccc(NC(=O)c2ocnc2C)cc1Cl ?
GLA inh pH 4.5: 0; miR-21 reporter: -46%; Rango-impB inh: 1.3%; Rango dissoc inh: -3%

What do the screens show for `CCOC(=O)c1c(C)[nH]c(C)c1S(=O)(=O)NCCCN1CCOCC1`?
miR-21 reporter: -1%; Rango-impB inh: 1.0%; Rango dissoc inh: 26%

Results for FC(F)(F)c1cc(N2CCNCC2)c2ccccc2n1 ?
GLA inh pH 4.5: 0; miR-21 reporter: -16%; Rango-impB inh: -1.9%; Rango dissoc inh: -13%

What do the screens show for `COc1ccccc1NC(=O)CSc1nc2ncccc2[nH]1`?
GLA inh pH 4.5: 0; miR-21 reporter: -6%; Rango-impB inh: -0.4%; Rango dissoc inh: -8%

What do the screens show for `O=C(CSc1nnnn1Cc1ccccc1)c1ccc(F)cc1`?
GLA inh pH 4.5: -4; miR-21 reporter: -32%; Rango-impB inh: -0.3%; Rango dissoc inh: 9%

Results for CCCCCNc1nc2sc3c(c2c(=O)n1-c1cccc(Cl)c1)CCN(C)C3 ?
GLA inh pH 4.5: -1; miR-21 reporter: 12%; Rango-impB inh: inconclusive; Rango dissoc inh: 16µM*

What do the screens show for `COc1cccc(N=Nc2c(C)[nH]n(-c3ccccc3)c2=O)c1`?
miR-21 reporter: -28%; Rango-impB inh: 5.6%; Rango dissoc inh: -8%

What do the screens show for `O=C(OC(C(=O)NC1CCCC1)c1ccc(F)cc1)c1ccno1` (stereo unspecified)?
GLA inh pH 4.5: -3; miR-21 reporter: -1%; Rango-impB inh: 6.3%; Rango dissoc inh: 0%

How did S=C(NCc1ccc(Cl)c(Cl)c1)Nc1ccc2c(c1)OCO2 do in these assays?
GLA inh pH 4.5: -1; miR-21 reporter: -13%; Rango-impB inh: -0.6%; Rango dissoc inh: -4%

Results for CCc1cccc(OCC(=O)Nc2ccccc2N2CCCC2)c1 ?
Rango-impB inh: -3.9%; Rango dissoc inh: 13%

How did Cc1ccc(OCc2cc(C(=O)N3CCN(C4CCCC4)CC3)no2)cc1C do in these assays?
miR-21 reporter: -30%; Rango-impB inh: 0.0%; Rango dissoc inh: -16%

What do the screens show for `COc1ccc(CCNC(=O)CCNC(=O)c2ccc(Cl)cc2)cc1OC`?
GLA inh pH 4.5: -7; miR-21 reporter: 1%; Rango-impB inh: -0.3%; Rango dissoc inh: 24%

How did CCOC(=O)C(Cc1c(F)cccc1Cl)c1ccno1 (stereo unspecified) do in these assays?
GLA inh pH 4.5: -4; miR-21 reporter: 2%; Rango-impB inh: -3.7%; Rango dissoc inh: 2%

What do the screens show for `C/C(=C\c1ccccc1)C(=O)Nc1ccc(Cl)cn1`?
miR-21 reporter: -42%; Rango-impB inh: 3.9%; Rango dissoc inh: -3%

What do the screens show for `O=C(C1=C(Nc2ccccc2)c2ccccc2S(=O)(=O)N1)c1ccccc1`?
GLA inh pH 4.5: -9; miR-21 reporter: 1%; Rango-impB inh: inconclusive; Rango dissoc inh: -11%

Results for O=C(CN1C(=O)NC(c2ccccc2)(c2ccccc2)C1=O)N1CCOCC1 ?
Rango-impB inh: -2.8%; Rango dissoc inh: 1%

What do the screens show for `CC(=O)OCC1OC(n2cc(F)c(=O)[nH]c2=O)C(OC(C)=O)C1OC(C)=O` (stereo unspecified)?
Rango-impB inh: -0.3%; Rango dissoc inh: -9%

Results for CC(C)(C)NC(=O)c1ccc(Cn2cc(C(F)(F)F)ccc2=O)cc1 ?
GLA inh pH 4.5: 9; miR-21 reporter: -1%; Rango-impB inh: 5.4%; Rango dissoc inh: 13%

How did CC(C)NC(=O)Cc1ccc(Br)cc1 do in these assays?
GLA inh pH 4.5: 12; miR-21 reporter: -10%; Rango-impB inh: -1.3%; Rango dissoc inh: -2%

How did N=c1c(C(=O)NCc2ccco2)cc2c(=O)n3ccccc3nc2n1CC1CCCO1 (stereo unspecified) do in these assays?
Rango-impB inh: inconclusive; Rango dissoc inh: inconclusive

What do the screens show for `COCc1ccccc1C1=CC(=O)C[C@H](c2ccc(F)cc2)C1`?
Rango-impB inh: 2.1%; Rango dissoc inh: 2%

How did CN(C)c1cccc2c1c(NC(=O)Nc1ccc(F)cc1F)nn2C do in these assays?
GLA inh pH 4.5: -17; miR-21 reporter: -4%; Rango-impB inh: 3.8%; Rango dissoc inh: 1%

Results for CCOc1ccccc1NC(=O)Cn1nnc(C(=O)NCc2ccco2)c1N ?
GLA inh pH 4.5: 7; miR-21 reporter: 10%; Rango-impB inh: -2.4%; Rango dissoc inh: -10%

Results for Cn1cnnc1SCC(=O)c1cc2ccccc2oc1=O ?
GLA inh pH 4.5: 3; miR-21 reporter: -8%; Rango-impB inh: inconclusive; Rango dissoc inh: -22%

Results for Cc1ccccc1N1C(=O)Cc2ccccc2C1=O ?
miR-21 reporter: 0%; Rango-impB inh: inconclusive; Rango dissoc inh: -16%

How did COc1cc(C(c2nnnn2C2CCCC2)N2CCc3ccccc3C2)ccc1O (stereo unspecified) do in these assays?
GLA inh pH 4.5: 5; miR-21 reporter: -3%; Rango-impB inh: 1.3%; Rango dissoc inh: 32%

What do the screens show for `COc1cc(/C=C2\Oc3cc(O)ccc3C2=O)ccc1O`?
GLA inh pH 4.5: -9; miR-21 reporter: -119%; Rango-impB inh: inconclusive; Rango dissoc inh: inconclusive

Results for Cc1cc(N2C(=O)c3ccccc3C2=O)n(C)n1 ?
GLA inh pH 4.5: 5; miR-21 reporter: -1%; Rango-impB inh: -1.0%; Rango dissoc inh: -13%

What do the screens show for `CC(=O)N1c2ccc(S(=O)(=O)N3CCC(C(=O)N4CCCC(C)C4)CC3)cc2CC1C` (stereo unspecified)?
miR-21 reporter: 16%; Rango-impB inh: -0.6%; Rango dissoc inh: 5%

What do the screens show for `O=C(Nc1cccc(-c2nnn(CC(=O)N3CCc4ccccc4C3)n2)c1)C1CCC1`?
GLA inh pH 4.5: 0; miR-21 reporter: 1%; Rango-impB inh: inconclusive; Rango dissoc inh: 5%

Results for Cc1nc(NCCCO)c(C#N)c2c1COC(C)(C)C2 ?
GLA inh pH 4.5: 12; miR-21 reporter: -21%; Rango-impB inh: 1.1%; Rango dissoc inh: 1%

What do the screens show for `S=c1nc(-c2sccc2OCc2ccc(Cl)cc2Cl)[nH][nH]1`?
GLA inh pH 4.5: 3; miR-21 reporter: 3%; Rango-impB inh: 2.9%; Rango dissoc inh: 20%

How did O=C(CCc1ccccc1)NNC(=S)NC(=O)c1ccc(Cl)cc1 do in these assays?
GLA inh pH 4.5: 6; miR-21 reporter: -17%; Rango-impB inh: -1.8%; Rango dissoc inh: 0%

What do the screens show for `O=C(CC1SC(N2CCCCC2)=NC1=O)Nc1ccc(C(=O)Nc2ccccc2)cc1` (stereo unspecified)?
Rango-impB inh: -1.0%; Rango dissoc inh: 7%

How did O=C1CCCCN1CCC(=O)N1CCCC(N2CCN(c3cccc(Cl)c3)CC2)C1 (stereo unspecified) do in these assays?
miR-21 reporter: -23%; Rango-impB inh: 2.3%; Rango dissoc inh: 1%

What do the screens show for `O=C(NCCCNC(=O)c1ccccn1)c1ccc(Cl)cc1`?
miR-21 reporter: -4%; Rango-impB inh: -1.3%; Rango dissoc inh: 13%

2 entries drawn at random from the list so far, as already listed:
Results for Cc1cc(N2C(=O)c3ccccc3C2=O)n(C)n1 ?
GLA inh pH 4.5: 5; miR-21 reporter: -1%; Rango-impB inh: -1.0%; Rango dissoc inh: -13%

What do the screens show for `S=c1nc(-c2sccc2OCc2ccc(Cl)cc2Cl)[nH][nH]1`?
GLA inh pH 4.5: 3; miR-21 reporter: 3%; Rango-impB inh: 2.9%; Rango dissoc inh: 20%
